Source: PubChem BioAssay (several laboratories)
YopH inh: YopH tyrosine phosphatase inhibitors, primary screen, biochemical, fluorescence Ex485/Em525. YopH tyrosine phosphatase [Yersinia enterocolitica]. actives 0.16% (n = 140,000). AID 898, 2007. inhibition, %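 (about 10 µM by stock and volumes)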;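 active means inhibition of 50% or more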;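 further: controls were vehicle for no effect and minimum signal wells for full effect; inactives centre near -20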
Mtb growth: M. tuberculosis H37Rv growth inhibitors, H37Rv strain (AID 1626) | actives 0.95% (n = 220,000) | inhibition, % at 10 µM; hits with a dose series show IC50 in µM | M. tuberculosis H37Rv growth inhibition; higher % means a stronger effect;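 active means confirmed in a dose series; inconclusive means inhibition above 80% but not taken into the dose series; inactive means below 80% or under 30% at every dose of the series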;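 further: bacteria incubated seven days before Alamar blue readout; 0% = bacteria only wells and 100% = bacteria with antibiotic wells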
Arbovirus anti: antivirals against arbovirus infection, primary screen, cell-based, full library, 10K replicate subset. inhibition, % at 10 µM. arbovirus infection cell-based antiviral screen. AID 1251, 2008. actives 0.37% (n = 200,000);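 active means inhibition from about 30%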;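 further: bluetongue infection of BSR cells; cell survival read as ATP light after 72 h; 0% = infected wells without compound and 100% = uninfected wells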
Mtb bLac sens: beta-lactam sensitization of Mtb H37Rv, H37Rv; M. tuberculosis H37Rv growth with meropenem, percent inhibition; hits of this screen are not shown here; inhibition, % at 25 µM; actives 0.27% (n = 330,000);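 active means about 74% or more and at least 40 points above the plate without the antibiotic, then above 30% in a dose series; inconclusive means first-round hits that could not be retested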;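 further: growth measured after seven days incubation then overnight dye step; 0% = bacteria only wells and 100% = bacteria with antibiotic; twin plates without the antibiotic show which effects depend on it; some results filed as inactive read as strong as hits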
RecA splice inh: Mtb RecA intein splicing inhibitors, primary screen, biochemical, fluorescence, HTS; cell-free RecA intein splicing; inhibition, %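 (about 9 µM by stock and volumes)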; actives 0.75% (n = 290,000); AID 2221, 2009; in the data active means inhibition above about 30%; inconclusive means no clear call, values can overlap the other calls;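 further: 0% = vehicle wells and 100% = reference inhibitor control wells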
Target sequence (P9WHJ3 whole entry, looked up, canonical isoform): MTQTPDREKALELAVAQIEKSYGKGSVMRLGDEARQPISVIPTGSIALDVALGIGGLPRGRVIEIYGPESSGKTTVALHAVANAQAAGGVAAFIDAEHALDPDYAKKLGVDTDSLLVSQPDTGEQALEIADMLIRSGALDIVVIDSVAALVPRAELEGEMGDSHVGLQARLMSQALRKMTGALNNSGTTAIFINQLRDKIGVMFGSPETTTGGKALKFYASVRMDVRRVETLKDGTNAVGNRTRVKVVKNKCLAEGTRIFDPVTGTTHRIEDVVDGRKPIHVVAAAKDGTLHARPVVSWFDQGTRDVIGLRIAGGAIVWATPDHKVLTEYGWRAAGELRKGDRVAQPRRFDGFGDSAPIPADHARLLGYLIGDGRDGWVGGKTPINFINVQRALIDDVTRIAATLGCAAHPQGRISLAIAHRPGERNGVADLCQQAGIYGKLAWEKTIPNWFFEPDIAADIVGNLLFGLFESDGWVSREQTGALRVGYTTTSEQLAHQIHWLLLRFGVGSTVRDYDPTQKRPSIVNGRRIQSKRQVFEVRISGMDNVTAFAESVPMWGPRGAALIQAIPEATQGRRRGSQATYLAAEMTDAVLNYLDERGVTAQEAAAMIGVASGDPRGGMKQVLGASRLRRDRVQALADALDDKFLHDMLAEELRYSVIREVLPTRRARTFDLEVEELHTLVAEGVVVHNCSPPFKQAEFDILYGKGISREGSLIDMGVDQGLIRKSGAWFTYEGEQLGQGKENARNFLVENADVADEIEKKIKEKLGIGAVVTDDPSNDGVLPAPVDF
Arbovirus anti repeat: also measured in Arbovirus anti; calls as there; inhibition, %; measured here: 10K subset replicate screen; many hits read low in the repeat;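 first of two repeat runs on a subset; 0% = infected and 100% = uninfected wells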
The depositor's hits bear a star; ? = inconclusive; · = not tested or not shown. These rows are one share of the data; the hit share may differ from the screen's.

SMILES	YopH inh	Mtb growth	Arbovirus anti	Mtb bLac sens	RecA splice inh	others
CCn1cc(S(=O)(=O)Nc2ccc(C)c(Cl)c2)cn1	·	·	·	-0.3	1.5
N#CCSc1nnc2sc3ccccc3n12	-20.9	2.2%	-6.7	-1.0	-0.3
COc1ccccc1N(CC(=O)N/N=C/c1ccc(OCC(=O)NCc2ccco2)cc1)S(=O)(=O)c1ccc(C)cc1	-25.4	6.4%	-19.1	52.4	1.2
CC(C)c1ccc(C2c3[nH]c4ccccc4c3C[C@H]3C(=O)N(c4ccccc4C(=O)N4CCC[C@@H]4C(=O)O)C(=O)N23)cc1 (stereo partly drawn)	·	·	·	-1.1	0.1
Cc1ccc(NC(=O)N2CCCN(C(=O)OC(C)(C)C)CC2)cc1Cl	·	·	·	3.0	-1.4
CCOC(=O)N1CCN(S(=O)(=O)c2ccc(OCC(=O)OC)c(Cl)c2)CC1	-27.8	-3.8%	4.6	-0.4	2.1
CCN(CC(=O)Nc1ccccc1C(F)(F)F)C(=O)C1=COCCO1	·	·	·	0.4	-1.6
CCCc1c(C)[nH]c2ccccc2c1=O	-11.5	-5.7%	6.4	3.1	-1.8
COc1ccc(CN(C(=O)/C=C/C(=O)c2ccc(OC)cc2O)C(C(=O)NC2CCCCC2)c2ccncc2)cc1 (stereo not drawn)	-11.4	10.9%	-11.9	1.4	5.5
Cc1cc(C)n(C(=O)CN2C(=O)CCC2=O)n1	3.0	1.5%	1.3	8.1	0.4
Cn1c(SCC(=O)NCc2ccccc2)ncc(C(=O)Nc2ccccc2)c1=O	·	·	·	-6.6	4.6
CCOC(=O)c1c(CSc2ccccc2)oc2ccc(O)cc12	-24.1	3.2%	3.5	12.9	·
COc1cccc2c1C(=O)C[C@]1(CCCC[C@@H]1C)O2	·	·	·	86.2	5.5
Cc1cc(=O)n2[nH]c(NCc3ccccc3F)nc2n1	·	-4.8%	14.1	-3.1	-1.8
CCN(CC)C(=O)C1CC(c2ccc(OC)cc2)=NO1 (stereo not drawn)	-0.7	-7.2%	-4.9	-11.6	3.2
COc1ccc(C=O)cc1CN1CCCN(Cc2ccc(Cl)cc2)S1(=O)=O	·	·	·	3.6	15.8
O=C(CSc1nnc(-c2cccnc2)o1)Nc1ccccc1Br	·	·	·	-5.6	0.7
N#CC1=C(Nc2ccc(Br)cc2)CCC1	-40.4	-1.7%	-7.0	-11.4	0.3
COCCCNC(=O)CC(NS(=O)(=O)c1ccc(C)cc1)c1ccc(OC)cc1 (stereo not drawn)	-8.4	-1.0%	0.2	-1.0	1.8
COc1ccc(-c2csc3nc(C)nc(N4CCN(c5ccc(C(C)=O)cc5)CC4)c23)cc1OC	·	2.8%	-3.9	80.3	11.0

Structural class: those above with bromine (two)
SMILES	YopH inh	Mtb growth	Arbovirus anti	Mtb bLac sens	RecA splice inh	others
O=C(CSc1nnc(-c2cccnc2)o1)Nc1ccccc1Br	·	·	·	-5.6	0.7
N#CC1=C(Nc2ccc(Br)cc2)CCC1	-40.4	-1.7%	-7.0	-11.4	0.3

2 compounds picked at random from those above:
SMILES	YopH inh	Mtb growth	Arbovirus anti	Mtb bLac sens	RecA splice inh	others
CCN(CC)C(=O)C1CC(c2ccc(OC)cc2)=NO1 (stereo not drawn)	-0.7	-7.2%	-4.9	-11.6	3.2
CCn1cc(S(=O)(=O)Nc2ccc(C)c(Cl)c2)cn1	·	·	·	-0.3	1.5

Next entries
SMILES	YopH inh	Mtb growth	Arbovirus anti	Mtb bLac sens	RecA splice inh	others
COc1ccc(-c2nc3nc(C)cc(C)n3n2)cc1	-16.2	-8.8%	-2.6	-8.7	·
COc1ccccc1NC(=O)CCc1nc(-c2ccccc2F)no1	·	2.0%	-1.6	-9.2	0.9
CN(C)C(=O)Oc1ccc2c(c1)O/C(=C\c1cccc(Cl)c1)C2=O	·	·	·	2.8	7.5
COC(=O)Cc1c(CSc2ccccc2)oc2ccc(O)c(CN(C)C)c12	·	·	·	-6.0	-0.5
COc1ccc(CCNc2ccc(S(=O)(=O)N3CCCC3)cc2[N+](=O)[O-])cc1	6.0	13.1%	0.6	-11.8	0.1
O=C(NCc1nc2ccccc2[nH]1)C1=C[C@H](c2ccc3c(c2)OCO3)C[C@H](OCc2ccc(CO)cc2)O1	·	-4.1%	-4.5	-6.6	4.3
COc1cc(OC)c(NC(=O)c2csc(C)c2)cc1Cl	·	·	·	13.1	-1.4
CCOc1ccc(-n2ccnc(SCC(=O)Nc3ccc(OC)cc3OC)c2=O)cc1	·	·	·	-10.0	0.1
C=CCNC(=S)N/N=C/c1ccc(-c2ccc(OC)cc2)o1	·	?	9.5	-1.4	3.0
O=C(Cc1cccs1)N/N=C\c1ccc(O)cc1	·	3.0%	-0.9	-5.8	-1.0
O=C(OCC(=O)N1c2ccccc2Sc2ccccc21)C1CC(=O)N(Cc2ccco2)C1 (stereo not drawn)	-2.1	3.3%	-1.2	8.3	4.2
CC(C)COC(=O)NCCOC(=O)Nc1cccc(Cl)c1	-7.6	2.5%	7.4	-5.8	0.8
O=C(NC1CCCC1)C(c1ccc(F)cc1)N(Cc1ccc(F)cc1)C(=O)c1ccn[nH]1 (stereo not drawn)	-11.3	-7.7%	2.1	8.1	1.8
O=C(Cc1ccc(F)cc1)NC1CCS(=O)(=O)C1 (stereo not drawn)	·	·	·	-11.2	3.5
CCOC(=O)c1sc(NC(=S)NC(=O)C2CCCC2)cc1C	-20.6	-6.5%	-7.0	-3.6	-2.2
CC[N+]1(CC)CC2=Cc3c(ccc4ccccc34)C(C)C2C1 (stereo not drawn)	·	4.1%	·	-13.2	-0.7
O=C1CSC(c2cccc(Cl)c2Cl)N1c1ccccn1 (stereo not drawn)	-11.5	7.7%	2.6	2.7	11.7
COc1ccccc1C(=O)NNC(=S)NC(=O)c1cccs1	·	·	·	98.3	12.3
Cc1nnc(SCc2ccc(F)cc2Cl)s1	-4.1	3.3%	0.7	-6.5	0.9
CCOc1ccc(CN(C)C(=O)c2ccc(NC(=O)CC3SC(N4CCCC4)=NC3=O)cc2)cc1 (stereo not drawn)	·	·	·	-8.5	-0.3
COc1cc(OC)cc(C(=O)Nn2c(C)nc3ccccc3c2=O)c1	-1.2	·	7.9	-8.3	-0.3
Cc1cccnc1NCC(O)COc1ccccc1 (stereo not drawn)	-21.3	-9.0%	0.7	-2.7	1.7
CCn1cc(CN(C)S(=O)(=O)c2cccc([N+](=O)[O-])c2)cn1	·	-10.2%	3.4	3.1	4.4
CC(C)Sc1nnc(NC(=O)c2ccco2)s1	·	-1.4%	18.4	-5.1	-0.7
CCOC(=O)C1C(=O)NC(N2CCCCC2)=NC1c1ccco1 (stereo not drawn)	-14.8	0.7%	5.7	-7.8	-4.1
CCc1ccc(CN(Cc2cccnc2)C(=O)/C=C/c2ccc(OC)cc2)cc1	·	·	·	84.0	19.6
CSc1ccccc1NC(=O)CN(C)Cc1cc(=O)n2ccsc2n1	·	-6.2%	-3.0	8.4	-0.8
Cc1ccc(OCC(=O)NC(C)c2ccc(Cl)c(Cl)c2)c([N+](=O)[O-])n1 (stereo not drawn)	·	·	·	-1.5	1.7
N#Cc1cc([N+](=O)[O-])ccc1NCCc1ccccn1	·	-4.0%	1.3	-1.3	3.4
Cc1cc(NC(=O)c2ccccc2[N+](=O)[O-])ccc1Br	·	5.2%	5.2	-0.1	2.2
Cc1ccc(NC(=S)NCc2cccnc2)cc1	-20.9	-2.4%	0.4	-5.6	-2.2
Cc1cccc(C(=O)Nc2cccc(C(=O)N/N=C/c3ccncc3)c2)c1	-20.0	0.6%	-8.6	7.6	1.5
Cn1c(CCN2CCN(c3ccccn3)CC2)nc2cc(NS(=O)(=O)c3ccccc3)ccc21	·	·	·	10.4	1.7
CCOC(=O)c1c([N+](=O)[O-])c(C)[nH]c(=O)c1C#N	·	1.8%	·	8.8	1.7
CCCNC(=O)COCc1cc(-c2ccc3c(c2)OCO3)on1	·	·	·	5.2	-1.8
O=C(N[C@@H](Cc1ccccc1)C(=O)OCc1ccccc1)c1nc[nH]c1C(=O)NCc1ccccc1	·	4.0%	1.3	-11.6	-1.7
O=[N+]([O-])c1cc(S(=O)(=O)N2CCCCC2)ccc1NCCN1CCOCC1	·	4.1%	2.5	-12.4	0.3
CCOC(=O)c1cc(NC(=O)N2CCCc3ccccc32)c(C)nc1C	-40.5	-5.9%	12.9	-10.2	-2.1
CS(=O)(=O)c1ccc(Cl)c(NC(=O)CN2C(=O)C3CCCCC3C2=O)c1 (stereo not drawn)	·	·	·	-1.5	-1.9
CCOC(=O)CNC(=O)/C(=C\c1ccc(F)cc1)NC(=O)c1ccccc1	·	2.1%	-0.7	·	-1.4

In the list so far, 5 contain a thiophene ring, fused or not.
SMILES	YopH inh	Mtb growth	Arbovirus anti	Mtb bLac sens	RecA splice inh	others
COc1ccc(-c2csc3nc(C)nc(N4CCN(c5ccc(C(C)=O)cc5)CC4)c23)cc1OC	·	2.8%	-3.9	80.3	11.0
COc1cc(OC)c(NC(=O)c2csc(C)c2)cc1Cl	·	·	·	13.1	-1.4
O=C(Cc1cccs1)N/N=C\c1ccc(O)cc1	·	3.0%	-0.9	-5.8	-1.0
CCOC(=O)c1sc(NC(=S)NC(=O)C2CCCC2)cc1C	-20.6	-6.5%	-7.0	-3.6	-2.2
COc1ccccc1C(=O)NNC(=S)NC(=O)c1cccs1	·	·	·	98.3	12.3

Going on with the list.
SMILES	YopH inh	Mtb growth	Arbovirus anti	Mtb bLac sens	RecA splice inh	others
COc1ccc(NC(=O)c2cc(C)n(Cc3cccs3)c2C)cc1	·	-0.8%	·	-5.6	·
Cc1ccc(CNC(=O)c2ccc3nc4[nH]c5ccccc5c4nc3c2)cc1	6.3	6.2%	-26.7	·	-2.4
CC1(c2ccccc2Cl)NC(=O)N(CC(=O)Nc2cccnc2Cl)C1=O (stereo not drawn)	·	·	·	-5.1	-0.8
Cc1ccc(CNC(=O)C2CCN(S(=O)(=O)N3CC(C)CC(C)C3)CC2)cc1 (stereo not drawn)	·	·	·	-2.2	-3.5
O=C(NC1CCCCCC1)C1CCN(C(=O)Cc2ccccc2)CC1	-33.1	-3.6%	2.6	-10.0	1.0	Arbovirus anti repeat=-2.3
c1ccc(C2=Nc3ccccc3OC2)cc1	-12.5	4.73µM*	-9.5	98.3	0.0
Cc1ccc(S(=O)(=O)Nc2cc(=O)[nH]c(SCc3ccc(Cl)cc3)n2)cc1	-21.2	3.7%	-2.9	-5.9	·
CC(C)Oc1c(Cl)cc(CNC(C)(C)CO)cc1Cl	-25.5	-1.5%	-0.1	-4.0	-2.5
COc1ccc(Cl)cc1S(=O)(=O)N(C)CC(=O)NCc1ccccn1	·	·	·	-6.0	-1.5
COc1cccc2[nH]c3c(=O)[nH]cnc3c12	·	·	·	1.4	1.0
Cc1ccc(S(=O)(=O)Nc2ccc3nc(C)sc3c2)cc1	7.5	5.0%	7.7	-4.6	-1.7
COc1cccc(CC2(CO)CCN(S(=O)(=O)N(C)C)CC2)c1	·	-10.0%	-0.2	0.2	-2.2
CC(C)Oc1ccc(CC(=O)NNC(=S)Nc2ccc(Br)cc2)cc1	-30.8	8.5%	5.2	2.2	1.1
Cn1ccc(NC(=O)Nc2cccc([N+](=O)[O-])c2)n1	·	5.0%	5.2	7.9	2.1
Cc1ccccc1NC(=O)c1cc2c(C)nc3ccccc3c2o1	·	9.4%	16.4	4.6	-9.7
